# Screening data as filed in PubChem.
# Env fusion inh: HIV envelope-mediated fusion inhibition; inhibition, % at 12.3 µM; HeLa-JRFL Env/CEM21 cell fusion, luciferase; 360,000 tested, 1.1% active;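 active = mean replicate inhibition score of at least 50 and every replicate individually at or above 50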;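 note: 0% = plate neutral controls and 100% = maraviroc near 300 nM; one replicate is shown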
# Starred values were filed as active, the others as inactive; [ ] = dose if it differs, or a comment.
Compound	Env fusion inh
C[C@@H]1CN([C@H](C)CO)C(=O)CCCn2cc(nn2)CO[C@@H]1CN(C)C(=O)Nc1ccc(C(F)(F)F)cc1	10.4[16.7 µM]
CO[C@@H]1CN(C)C(=O)c2cc(NC(=O)C3CCCC3)ccc2OC[C@@H](C)N(C(C)=O)C[C@@H]1C	7.6[16.7 µM]
Cc1cc(Br)cn2c(Cc3ccccc3C(F)(F)F)c(-c3ccc(C#N)cc3)nc12	2.0
COc1ccccc1CN1C(=O)c2ccccc2[C@](Cc2ccccc2I)(C(=O)NCc2ccccc2)[C@@H]1c1ccc(CO)cc1	60.5*[16.7 µM]
CNC[C@@H]1Oc2ccc(NS(C)(=O)=O)cc2C(=O)N([C@@H](C)CO)C[C@@H]1C	0.7[16.7 µM]
C[C@@H]1CN([C@H](C)CO)C(=O)Cc2cc(NC(=O)Nc3ccc(F)cc3)ccc2O[C@@H]1CN(C)Cc1ccc(C(F)(F)F)cc1	1.6[16.7 µM]
CCN(CC)CCCNC(=O)c1cc2cc(Cl)ccc2nc1N	0.3
O=C(C[C@@H]1C[C@H]2c3cc(NC(=O)C4CCC4)ccc3O[C@H]2[C@H](CO)O1)NCc1ccccn1	8.7[16.7 µM]
C[C@H](CO)N1C[C@H](C)[C@H](CN(C)Cc2ccccc2)Oc2cc(C3=CCCCC3)ccc2S1(=O)=O	42.2[16.7 µM]
COc1cccc(-c2cccc(-c3nc(C(=O)O)cc4c3[C@H](CCO)N(S(=O)C(C)(C)C)C4)c2)c1 (stereo not given in full)	4.7[16.7 µM]
C[C@H]1CN([C@@H](C)CO)C(=O)c2cccc(NS(C)(=O)=O)c2O[C@H]1CN(C)Cc1ccc(Cl)c(Cl)c1	-1.9[16.7 µM]
CCCN(C)C[C@H]1OCCCC[C@H](C)Oc2ccc(NC(=O)Nc3ccc(F)cc3)cc2C(=O)N([C@@H](C)CO)C[C@H]1C	-24.0[16.7 µM]
COC(=O)C1=C(C)N(Cc2cccc(C(F)(F)F)c2)C(=NCc2ccc3c(c2)OCO3)NC1c1ccccc1 (stereo not given)	11.6
CCS(=O)(=O)Nc1ccc2c(c1)C(=O)N(C)[C@H]1CC[C@@H](CC(=O)N3CCN(C)CC3)O[C@H]1CO2	-7.0[16.7 µM]
O=C(N[C@H](Cc1ccccc1)C(=O)O)[C@H]1O[C@@H](n2ccc(=O)[nH]c2=O)[C@H](O)[C@@H]1O	-19.0
CCCNC(=O)N1C[C@@H](C)[C@@H](OC)CN(C)C(=O)c2cc(NC(=O)CCC)ccc2OC[C@@H]1C	-9.0[16.7 µM]
COc1ccc(-c2cn(CC[C@H]3CC[C@H](NC(=O)CCN4CCCCC4)[C@@H](CO)O3)nn2)cc1	12.3[16.7 µM]
Cc1noc(C)c1NC(=O)Nc1ccc2c(c1)C(=O)N([C@H](C)CO)C[C@@H](C)[C@H](CN(C)CC1CC1)OCCCC[C@@H](C)O2	-11.7[16.7 µM]
C[C@H]1CN([C@@H](C)CO)C(=O)c2ccccc2-c2ccccc2CO[C@H]1CN(C)S(=O)(=O)c1cccs1	35.4[16.7 µM]
COc1ccc(C[C@H]2CCn3cc(nn3)COC[C@H](c3ccccc3)NC2=O)cc1	-4.0[16.7 µM]
C[C@H]1CN([C@@H](C)CO)C(=O)CCCn2nncc2CO[C@H]1CN(C)Cc1ccc(Oc2ccccc2)cc1	18.3[16.7 µM]
COc1ccc(C#Cc2ccc3c(c2)O[C@@H](CN(C)C(=O)CN2CCOCC2)[C@H](C)CN([C@H](C)CO)S3(=O)=O)cc1	9.2[16.7 µM]
O=C(C[C@H]1C=C[C@H](NC(=O)C2CC2)[C@@H](CO)O1)NC1CCC1	16.3[16.7 µM]
Cc1cccc(NC(=O)Nc2ccc3c(c2)C(=O)N(C)[C@@H]2CC[C@@H](CC(=O)NCc4ccccc4Cl)O[C@H]2CO3)c1	16.4[16.7 µM]
CN1C(=O)c2cc(NS(=O)(=O)c3cccc(F)c3)ccc2OC[C@H]2O[C@H](CC(=O)NCCN3CCCCC3)CC[C@H]21	6.4[16.7 µM]
CO[C@H]1CN(C)C(=O)c2ccc(NC(=O)c3ccc(-c4ccccc4)cc3)cc2OC[C@@H](C)NC[C@H]1C	38.9[16.7 µM]
CN(C)C(=O)c1cc2c(c(-c3cccc(C4=CCCC4)c3)n1)[C@@H](CCO)N([S@](=O)C(C)(C)C)C2	-29.0[16.7 µM]
CC(C)NC(=O)Nc1ccc2c(c1)CC(=O)N([C@H](C)CO)C[C@@H](C)[C@H](CN(C)CC1CC1)O2	-4.1[16.7 µM]
COc1ccc(NC(=O)N(C)C[C@H]2Oc3ccc(NS(=O)(=O)c4ccc(C)cc4)cc3CC(=O)N([C@@H](C)CO)C[C@H]2C)cc1	-3.1[16.7 µM]
COC(=O)C[C@@H]1CC[C@@H]2[C@H](COC[C@@H](O)CN2C(=O)Nc2ccccc2OC)O1	11.1[16.7 µM]
CN(C)CC(=O)Nc1ccc2c(c1)[C@H]1C[C@H](CC(=O)NC3CCCCC3)O[C@H](CO)[C@H]1O2	-19.4[16.7 µM]
COc1cccc(CNC(=O)C[C@H]2C=C[C@H](NC(=O)C3CCC3)[C@@H](CO)O2)c1	-12.9[16.7 µM]
CO[C@@H](CN(C)C(=O)C1CC1)[C@@H](C)CN(C(=O)Nc1ccc(C(F)(F)F)cc1)[C@@H](C)CO	-0.1[16.7 µM]
CCCC(=O)Nc1ccc2c(c1)OC[C@@H](C)N(CC1CCOCC1)C[C@H](C)[C@@H](OC)CN(C)C2=O	-10.9[16.7 µM]
COc1ccc(CNC(=O)C[C@@H]2CC[C@@H]3[C@H](COc4ccc(NC(=O)C(C)C)cc4C(=O)N3C)O2)cc1	-12.3[16.7 µM]
CC1(C)CC(=O)C=C(c2ccc(COC(=O)c3ccc(Br)cc3)cc2)C1=O	30.8

# Some of the entries above, set out differently.
Env fusion inh | Molecule
38.9[16.7 µM] | CO[C@H]1CN(C)C(=O)c2ccc(NC(=O)c3ccc(-c4ccccc4)cc3)cc2OC[C@@H](C)NC[C@H]1C
-29.0[16.7 µM] | CN(C)C(=O)c1cc2c(c(-c3cccc(C4=CCCC4)c3)n1)[C@@H](CCO)N([S@](=O)C(C)(C)C)C2
-4.1[16.7 µM] | CC(C)NC(=O)Nc1ccc2c(c1)CC(=O)N([C@H](C)CO)C[C@@H](C)[C@H](CN(C)CC1CC1)O2
-3.1[16.7 µM] | COc1ccc(NC(=O)N(C)C[C@H]2Oc3ccc(NS(=O)(=O)c4ccc(C)cc4)cc3CC(=O)N([C@@H](C)CO)C[C@H]2C)cc1
11.1[16.7 µM] | COC(=O)C[C@@H]1CC[C@@H]2[C@H](COC[C@@H](O)CN2C(=O)Nc2ccccc2OC)O1
-19.4[16.7 µM] | CN(C)CC(=O)Nc1ccc2c(c1)[C@H]1C[C@H](CC(=O)NC3CCCCC3)O[C@H](CO)[C@H]1O2

# Next records follow:
Compound	Env fusion inh
COC(=O)C1=C(C)N(Cc2cccc(C(F)(F)F)c2)C(=NCc2ccccc2C(F)(F)F)NC1c1cccc(F)c1 (stereo not given)	-79.8
COc1ccc2c3c(n(C)c2c1)[C@@H](CO)N(C(=O)c1ccc(F)cc1)CC31CN(C(=O)c2ccc(F)cc2)C1	26.5[16.7 µM]
CN1C(=O)c2cc(NC(=O)C3CCOCC3)ccc2OC[C@H]2O[C@H](CC(=O)NCCc3ccncc3)CC[C@H]21	6.4[16.7 µM]
O=C(O)c1cc(C(=O)O)cc(N2C(=O)c3ccccc3C2=O)c1	-13.9
CCSc1n[nH]c(=O)n1C	6.6
CC(C)NC(=O)N(C)C[C@@H]1OCCCC[C@@H](C)Oc2ccc(NC(=O)Cc3ccccc3)cc2C(=O)N([C@@H](C)CO)C[C@@H]1C	-5.4[16.7 µM]
CCC(=O)N1C[C@@H](C)[C@@H](OC)CN(C)C(=O)c2ccc(NC(=O)Nc3ccc(Cl)cc3)cc2OC[C@@H]1C	9.0[16.7 µM]
COCC(=O)Nc1ccc2c(c1)OC[C@@H](C)N(Cc1cocn1)C[C@@H](C)[C@@H](OC)CN(C)C2=O	-17.1[16.7 µM]
COc1cc(CCN=Cc2cccc(OC)c2O)c([N+](=O)[O-])cc1OC	16.8
CC(C)NC(=O)N(C)C[C@H]1OCCCC[C@H](C)Oc2ccc(N(C)C)cc2C(=O)N([C@@H](C)CO)C[C@@H]1C	5.9[16.7 µM]
CC(C)(C)S(=O)(=O)N1C[C@@H]2C(=C(CCO)C[C@@H]3C(=O)N(c4ccccc4)C(=O)[C@@H]32)[C@H]1CCO	2.3
O=C(Nc1ccc(-c2ccccc2)cc1)[C@@H]1[C@@H](CO)[C@@H]2Cn3c(cccc3=O)[C@H]1N2Cc1ccncc1	1.5[16.7 µM]
NC(=O)c1ncn([C@@H]2O[C@H](C(=O)Nc3ccc(C(=O)N4CCCCC4)cc3)[C@@H](O)[C@H]2O)n1	-18.1
C[C@@H]1CN([C@@H](C)CO)C(=O)c2cc(C#CC3CC3)cnc2O[C@@H]1CN(C)C(=O)c1ccncc1	-8.4[16.7 µM]
O=C(C[C@H]1C[C@@H]2c3cc(NC(=O)C4CCC4)ccc3O[C@@H]2[C@@H](CO)O1)NCc1ccccn1	6.6[16.7 µM]
COC(=O)c1cc2c(c3c4cc(F)ccc4n(S(=O)(=O)c4cccc(C)c4)c13)C(=O)N(C)C2	-6.4
CCCNC(=O)C[C@H]1CC[C@@H]2[C@H](COC[C@@H](O)CN2C(=O)c2cccnc2)O1	-7.0[16.7 µM]
COCCNC(=O)C[C@@H]1C[C@@H]2c3cc(NS(=O)(=O)c4ccccc4)ccc3O[C@@H]2[C@@H](CO)O1	-4.9[16.7 µM]
CC(=O)N1[C@@H]2c3ccc(-c4cncnc4)c(=O)n3C[C@@H]2[C@@H](CO)[C@@H]1C(=O)NCc1ccccc1Cl	44.8[16.7 µM]
CC(C)NC(=O)N(C)C[C@H]1Oc2ccc(NC(=O)Cc3cn(C)c4ccccc34)cc2CC(=O)N([C@@H](C)CO)C[C@@H]1C	11.0[16.7 µM]
O=C(C[C@@H]1CC[C@@H](NC(=O)C2CCC2)[C@H](CO)O1)NCC1CC1	-0.2[16.7 µM]
CC(C)NC(=O)N(C)C[C@H]1Oc2ccc(NC(=O)Cn3cnnn3)cc2C(=O)N([C@@H](C)CO)C[C@H]1C	-11.3[16.7 µM]
O=C(C[C@H]1CC[C@@H](NS(=O)(=O)c2ccc(F)cc2)[C@@H](CO)O1)NCc1ccc(Cl)c(Cl)c1	25.1[16.7 µM]
CO[C@H]1CN(C)C(=O)c2cccc(C#N)c2OC[C@@H]2O[C@@H](CC[C@H]2OC)CCN(C)C(=O)[C@H]1C	-15.3[16.7 µM]
C[C@@H]1CN([C@H](C)CO)S(=O)(=O)c2ccc(C#Cc3ccccn3)cc2O[C@@H]1CN(C)C	-15.1[16.7 µM]
O=C(NC[C@@H]1CC[C@@H]2[C@@H](CN2C(=O)Cc2ccncc2)O1)C1CCOCC1	-23.3[16.7 µM]
Cc1noc(C)c1NC(=O)N(C)C[C@@H]1OCc2ccccc2-c2ccccc2C(=O)N([C@@H](C)CO)C[C@@H]1C	4.3[16.7 µM]
COc1ccc(-c2ncn(CCc3ccccc3OC)c2CC(C)C)cc1	-0.8
O=C(Cc1c[nH]c2ccccc12)Nc1ccc(Nc2cccnc2)c(-c2cccc(Cl)c2)c1	-56.6
CNC[C@@H]1Oc2cc(-c3ccncc3)ccc2S(=O)(=O)N([C@@H](C)CO)C[C@H]1C	-8.6[16.7 µM]
CO[C@@H]1CN(C)C(=O)c2ccc(NS(C)(=O)=O)cc2OC[C@H](C)N(S(C)(=O)=O)C[C@H]1C	-18.9[16.7 µM]
C[C@H](CO)N1C[C@H](C)[C@H](CN(C)C(=O)Nc2ccc(F)cc2)Oc2ccc(NC(=O)C3CC3)cc2C1=O	13.3[16.7 µM]
C[C@@H]1CN([C@@H](C)CO)C(=O)c2cccc(NC(=O)CCCCCC(=O)Nc3ccccc3N)c2O[C@H]1CN(C)S(=O)(=O)c1ccc(Cl)cc1	-4.8[16.7 µM]
C[C@@H]1CN([C@H](C)CO)C(=O)c2ccccc2-c2ccccc2CO[C@@H]1CN(C)S(=O)(=O)c1ccccc1F	-5.1[16.7 µM]
C[C@@H]1CN([C@H](C)CO)C(=O)c2cc(NC(=O)Nc3ccccc3)ccc2O[C@@H](C)CCCCO[C@H]1CN(C)Cc1ccncc1	7.4[16.7 µM]
C[C@@H]1CCCCO[C@@H](CN(C)Cc2ccncc2)[C@@H](C)CN([C@H](C)CO)C(=O)c2cc(NC(=O)Nc3ccccc3)ccc2O1	10.0[16.7 µM]
C[C@H](NC(=O)[C@@H]1[C@@H](CO)[C@@H]2Cn3c(cccc3=O)[C@@H]2N1S(C)(=O)=O)c1ccccc1	-9.4[16.7 µM]
COC(=O)[C@]12C[C@H](CC(=O)N3CCCCC3)C(=O)N(Cc3ccc4c(c3)OCO4)C1=C[C@H](C(C)(C)C)O[C@@H]2C	-28.6
CCS(=O)(=O)N[C@@H]1CC[C@@H](CC(=O)NCc2ccccn2)O[C@@H]1CO	-7.4[16.7 µM]
CCCCc1c(-c2ccccc2OC)ncn1Cc1ccccc1	18.3
COC(=O)CCC[C@H](C)[C@@H](NS(=O)(=O)c1ccc(C)cc1)C(C)(C)C	4.2
O=S1(=O)N[C@H](Cc2ccccc2)COc2cccc(N3CCCCC3)c21	-3.1
COc1ccccc1CN1C[C@H](C)[C@@H](OC)CN(C)C(=O)c2cc(NC(C)=O)ccc2OC[C@H]1C	6.3[16.7 µM]
CO[C@H]1CC[C@@H]2CCN(C)C(=O)[C@H](C)CN(C)C(=O)c3cc(C#N)ccc3OC[C@H]1O2	17.9[16.7 µM]
COc1ccc(COC[C@]23Oc4ccccc4[C@H]([C@H]2COC(=O)c2ccc([N+](=O)[O-])cc2)N(C(=O)CC(C)=O)C(=O)N3C)cc1	-10.6[16.7 µM]
CO[C@H]1CC[C@@H]2CCOc3ccc(C#N)cc3C(=O)N(C)C[C@@H](OC)[C@H](C)C(=O)N(C)C[C@H]1O2	-13.7[16.7 µM]

# A portion of the library; count on the stated rates, not on these rows.
